# NS1 inh – qHTS Assay for Inhibitors of Influenza NS1 Protein Function. S. cerevisiae slowed by influenza A NS1, growth recovery by OD600. Potency, µM (doses to about 46.1 µM), without a hit: at the highest dose activity, positive = more growth. 270,000 tested, 0.4% active. AID 2326, 2010; note: actives are rising curves; nearly all actives have a fitted effect of over 50% in size
#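 Compounds were scored for reversing the slow growth caused by influenza A NS1 in S. cerevisiae, measured by optical density at 600 nm. Assay medium contained 2% galactose at pH 6.0; NS1-free yeast of the same strain were the positive control.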
# SARS PLpro yeast – qHTS of Yeast-based Assay for SARS-CoV PLP; AID 485353, 2010; S. cerevisiae expressing SARS-CoV PLpro, growth rescue; control for the full effect not named in the record; 330,000 tested, 0.19% active; Potency, µM (series often up to 32.9 µM), for the others: at the highest dose activity, positive = growth rescue; note: 0% is about no effect; nearly all actives have a fitted effect of over 55% in size; growth read by luminescence after 48 h
# RE007 growth inh – qHTS Assay for Inhibitors of the HIV-1 protein Vpr | Potency, µM (top dose mostly 92.2 µM), for the others: top-dose activity change, negative = less growth | 360,000 tested, 0.21% active | S. pombe RE007 Vpr strain, BacTiter-Glo ATP luminescence, 24 h; control for the full effect not named in the record; active = well fitted falling curve with a large enough effect; inconclusive = small, poorly fitted or top-dose-only effect; inactive = no such curve, though single readings can be large or run the other way;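 note: % is set by controls: 0 for no effect and ±100 for the full control effect; nearly all actives have a fitted effect of over 50% in size; the assay follows cell death caused by Vpr and the record does not say whether a fall means rescue or toxicity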
#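 Fission yeast strain RE007, carrying one chromosomally integrated HIV-1 vpr copy, was seeded at OD 0.01 in PMG+AL medium with 23 nL pinned compound. After 24 h at 30 °C and 99% humidity, viability was read by BacTiter-Glo luminescence.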
# Cruzain Triton – qHTS Assay for Promiscuous and Specific Inhibitors of Cruzain (with detergent) | AID 1478, 2009 | 200,000 tested, 0.43% active | Potency, µM, for inactives: max response, negative = inhibition, most hits filed as inhibitors | Cruzipain (Trypanosoma cruzi), P25779 | purified cruzain, Z-FR-AMC fluorescence, 0.01% Triton; active = well fitted curve in the direction sought with a large enough effect; inconclusive = small, poorly fitted or top-dose-only effect, or another doubt; inactive = no such curve, though single readings can be large; an effect the other way counts as inactive or inconclusive;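 note: plate controls were neutral wells for no effect and buffer without enzyme for full effect; nearly all actives have a fitted effect of over 40% in size; top concentration of the series not given in the record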
# Target sequence (P25779 123-467 limits assumed): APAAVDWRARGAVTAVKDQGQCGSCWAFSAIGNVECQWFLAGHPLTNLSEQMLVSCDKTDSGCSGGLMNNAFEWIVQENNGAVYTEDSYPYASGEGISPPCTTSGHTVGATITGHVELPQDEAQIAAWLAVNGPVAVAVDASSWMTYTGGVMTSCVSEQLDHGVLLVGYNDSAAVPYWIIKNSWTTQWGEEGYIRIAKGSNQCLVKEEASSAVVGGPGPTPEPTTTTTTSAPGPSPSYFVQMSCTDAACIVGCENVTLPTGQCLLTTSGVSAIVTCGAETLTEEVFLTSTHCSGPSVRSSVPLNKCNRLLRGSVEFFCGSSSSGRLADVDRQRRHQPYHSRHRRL
#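 Cysteine protease activity tested under reducing, mildly acidic conditions (100 mM sodium acetate pH 5.5, 5 mM DTT) plus 0.01% Triton X-100. Cruzain 1.5 nM; substrate Z-FR-AMC 2 uM; 15 min compound preincubation at room temperature.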
# Lassa entry inh – qHTS for Inhibitors of binding or entry into cells for Lassa Virus; Lassa virus pseudotype entry inhibition, cell reporter; control for the full effect not named in the record; Potency, µM (highest dose often 37.9 µM), for inactives: at the top dose activity change, negative = inhibition, most hits filed as inhibitors; 300,000 tested, 1.2% active; AID 540256, 2011; active means well fitted inhibition curve with a large enough effect; inconclusive means small, poorly fitted or top-dose-only effect, or effect the other way; inactive means flat fitted curve, though single readings scatter; tested in HEK293 cells; note: % is set by controls: 0 for no effect and ±100 for the full control effect; nearly all actives have a fitted effect of over 50% in size; luciferase read-out
# Marburg entry inh – qHTS for inhibitors of binding or entry into cells for Marburg Virus; 300,000 tested, 1.8% active; Marburg virus pseudotyped entry inhibition, cell reporter; control for the full effect not named in the record; about a third of the inactives were read at about 46 µM; Potency, µM (highest dose often 37.8 µM), without a hit: at the highest dose activity change, negative = inhibition, usual class: inhibitors; active = well fitted inhibition curve with a large enough effect; inconclusive = small, poorly fitted or top-dose-only effect, or effect the other way; inactive = flat fitted curve, though single readings scatter; tested in HEK293 cells; about a fifth of its hits are not listed in these tables; note: % is set by controls: 0 for no effect and ±100 for the full control effect; luciferase read-out
# Cruzain inh noDet – qHTS Assay for Promiscuous and Specific Inhibitors of Cruzain (without detergent); Cruzipain (Trypanosoma cruzi), P25779; purified cruzain, Z-FR-AMC fluorescence, no detergent; Potency, µM, for the others: max response, negative = inhibition, most hits filed as inhibitors; 200,000 tested, 2.3% active; AID 1476, 2009; active = well fitted curve in the direction sought with a large enough effect; inconclusive = small, poorly fitted or top-dose-only effect, or another doubt; inactive = no such curve, though single readings can be large; an effect the other way counts as inactive or inconclusive;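 note: plate controls were enzyme without inhibitor for no effect and buffer without enzyme for full effect; nearly all actives have a fitted effect of over 40% in size; top concentration of the series not given in the record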
#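 Detergent-free condition (0.00005% Triton X-100) in acetate buffer pH 5.5 with DTT. 1.5 nM enzyme and compound were pre-mixed 15 min, then 2 uM Z-FR-AMC substrate added; reaction progress from fluorescence change between first and third reads (60 s).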
# StopGo reporter – High Throughput Screening for Foot and Mouth Disease Virus Antivirals | human cells with a luciferase reporter of 2A StopGo recoding; control for the full effect not named in the record | Potency, µM (doses to about 57.9 µM), without a hit: at the top dose signal change, negative = less light | 410,000 tested, 1.2% active; active = well fitted falling curve with a large enough effect; inconclusive = small, poorly fitted or top-dose-only effect; inactive = no such curve, though single readings can be large or run the other way; tested in HEK293T cells; note: % is set by controls: 0 for no effect and ±100 for the full control effect; nearly all actives have a fitted effect of over 45% in size; luciferase light after 4 h
# The depositor's hits bear a star; ? = inconclusive; nt = not tested or not shown; [ ] = another dose, or the depositor's remark. Unless noted, calls come from the whole dose curve; as a rule, active means well fitted rising curve with a large enough effect; inconclusive means small, poorly fitted or top-dose-only effect; inactive means no such curve, though single readings can be large or run the other way. Potency is the fitted concentration of half-maximal effect.
SMILES,NS1 inh,SARS PLpro yeast,RE007 growth inh,Cruzain Triton,Lassa entry inh,Marburg entry inh,Cruzain inh noDet,StopGo reporter
CCCn1c(SCC(=O)NCc2ccc(OC)cc2)n[nH]c1=O,nt,1%,-7%,nt,0%[46.1 µM],-26%[46.1 µM],nt,-6%
N#CC1(NC(=O)COc2ccc(S(=O)(=O)N3CCCC3)cc2[N+](=O)[O-])CCCCC1,nt,-1%,3%,nt,-15%,?,nt,-4%
O=C(Nc1ccc(Cl)cn1)c1ccccc1F,-18%,nt,-8%,-1.4%,?,?,-7%,-23%
O=C(NCc1ccccc1Cl)c1ccncc1,-5%,-2%,28%,nt,6%,?,nt,-18%
Cc1ccc(S(=O)(=O)N=Nc2c(O)[nH]c3ccccc23)cc1,-9%,-5%,11%,4.0%,6%,29%,5%,1%
O=C(NCC1CCCO1)c1ccc[nH]1 (stereo not given),2%,2%,-19%,nt,nt,nt,nt,-14%
Cc1ccc(S(=O)(=O)c2cc(C#N)c(=O)[nH]c2N)cc1,0%,1%,6%,-1.3%,-2%,3%,-2%,11%
O=C(Nc1ccc(CN2CCOCC2)cc1)c1cccc(F)c1,-2%,11%,-13%,-0.3%,?,?,-9%,25%
CC1CN(C(=O)CSc2nnc(-c3ccncc3)n2-c2ccccc2)CC(C)O1 (stereo not given),4%,7%,2%,0.0%,1%,7%,-3%,nt
CC(=O)N1CCc2cc(S(=O)(=O)NC3CCCc4ccccc43)ccc21 (stereo not given),-16%,-18%,5%,-8.1%,-21%,?,9%,?
COc1ccc(C2=Nn3c([n+](C)c4ccccc43)SC2)cc1,-1%,2%,?,nt,nt,nt,nt,?
CCC(C)NC(=O)c1cc(-c2cccs2)nc2ccccc12 (stereo not given),0%,1%,-13%,nt,-11%[46.1 µM],?,nt,-23%
CCOC(=O)Cc1nn(CC)c(=O)c2ccccc12,-3%,0%,-2%,nt,nt,nt,nt,6%
CCOC(=O)CN1C(=O)/C(=C/c2c(F)cccc2Cl)Oc2ccccc21,-10%,-11%,0%,nt,?,?,nt,-11%
O=C(OCC1CC(c2ccccc2Cl)=NO1)c1ccc(Br)cc1 (stereo not given),-6%,-25%,-14%,-4.9%,?,?,-1%,-1%
c1ccc2c(c1)CCCN2c1nc(N2CCOCC2)nc(N2CCOCC2)n1,-1%,0%,4%,nt,nt,nt,nt,-13%
Cc1ccnc(Nc2nc(-c3ccc(Cl)cc3)cs2)c1,19%,-6%,-19%,nt,4%[46.1 µM],?,nt,-9%
Cc1ccc(-n2c(/C=C/c3cccc(C(F)(F)F)c3)nc3ccccc3c2=O)cc1,nt,nt,nt,1.4%,23%[46.1 µM],nt,0%,-28%
O=c1cc(CN2CCCCCC2)nc2sccn12,4%,1%,-21%,nt,0%,2%[46.1 µM],nt,-8%
COc1cc2c(cc1OC)C(C(=O)NCCN1CCOCC1)C1c3ccccc3CCN1C2=O (stereo not given),0%,2%,-11%,-3.0%,29%,4%,-7%,-9%
O=C(NCc1ccccc1F)c1ccc2ccccc2n1,-23%,-21%,3%,nt,?,4%[46.1 µM],nt,60%[activator]
Cc1ccc(-c2cc(-c3cccs3)[nH]n2)c(O)c1,-119%,-27%,-21%,1.4%,-18%,2%[46.1 µM],-2%,38%[activator]
O=C(CCCn1c(SCC(=O)Nc2ccccc2C(F)(F)F)nc2ccccc2c1=O)NCC1CCCO1 (stereo not given),-7%,2%,-6%,nt,-2%[46.1 µM],-3%[46.1 µM],nt,-8%
CCOC(=O)c1c(C)[nH]c(C(=O)CN2C(=O)C(=O)N(CC(C)C)C2=O)c1C,nt,-1%,-7%,nt,nt,2%[46.1 µM],nt,9%
O=C(O)/C=C/c1ccc(S(=O)(=O)N(CCO)CCO)cc1,-1%,1%,13%,nt,17%[46.1 µM],6%[46.1 µM],nt,-9%
CC(Oc1ccc(C(C)(C)C)cc1)C(=O)NC1CC(C)(C)NC(C)(C)C1 (stereo not given),12%,1%,-4%,nt,-19%,?,nt,-25%
CCN(CC)CCCNC(=S)N1CCn2c(nc3ccccc32)C1,16%,-22%,-7%,13µM*,10%,-20%,-4%,-3%
Cc1[nH]nc2c1C(c1cccs1)C1=C(CC(C)(C)CC1=O)N2 (stereo not given),-3%,1%,8%,nt,-9%,?,nt,4%
COc1cc(-c2nc3ccc(N4CCN(C)CC4)cc3[nH]2)cc(OC)c1OC,nt,0%,-29%,nt,?,?,nt,-1%
COc1ccc(S(=O)(=O)N(C)CC(=O)NC2CCCCC2)cc1Cl,-2%,-6%,-8%,7.7%,4%,-13%,-1%,4%
CC(=O)Nc1ccc(/C=N/NC(=O)c2cc(-c3ccco3)nc3ccccc23)cc1,12%,-2%,32%,nt,-11%,-8%[46.1 µM],nt,-11%
COc1cc2c(cc1OC)CN(C(=O)/C=C/c1cccs1)CC2,-11%,-2%,0%,nt,nt,nt,nt,0%
COc1ccc(/C=C/C(=O)OCC(=O)N2CCCC2)c(OC)c1,nt,5%,-2%,nt,4%,?,nt,16%
CS(=O)(=O)NNC(=O)c1csc(Cc2c(Cl)sc3ccc(Cl)cc23)n1,3%,-3%,-3%,nt,-17%,20%[46.1 µM],nt,-12%
Cc1ccc(CN2C(=O)CSC2c2ccccc2F)cc1 (stereo not given),-5%,-1%,15%,nt,nt,nt,nt,0%
CCn1c(SCC(=O)Nc2ccc(F)cc2)nnc1-c1cnccn1,3%,0%,-6%,nt,nt,nt,nt,-20%

# Shown with bars between the fields: part of the list above.
molecule | NS1 inh | SARS PLpro yeast | RE007 growth inh | Cruzain Triton | Lassa entry inh | Marburg entry inh | Cruzain inh noDet | StopGo reporter
N#CC1(NC(=O)COc2ccc(S(=O)(=O)N3CCCC3)cc2[N+](=O)[O-])CCCCC1 | nt | -1% | 3% | nt | -15% | ? | nt | -4%
O=C(Nc1ccc(Cl)cn1)c1ccccc1F | -18% | nt | -8% | -1.4% | ? | ? | -7% | -23%
O=C(NCc1ccccc1Cl)c1ccncc1 | -5% | -2% | 28% | nt | 6% | ? | nt | -18%
Cc1ccc(S(=O)(=O)N=Nc2c(O)[nH]c3ccccc23)cc1 | -9% | -5% | 11% | 4.0% | 6% | 29% | 5% | 1%
O=C(NCC1CCCO1)c1ccc[nH]1 (stereo not given) | 2% | 2% | -19% | nt | nt | nt | nt | -14%

# Additional compounds follow:
SMILES,NS1 inh,SARS PLpro yeast,RE007 growth inh,Cruzain Triton,Lassa entry inh,Marburg entry inh,Cruzain inh noDet,StopGo reporter
N#Cc1c(N2CCCCC2)nc(N)c2c(N)nc3c(c12)CC(CCl)O3 (stereo not given),nt,2%,-11%,nt,-11%,-4%,nt,-17%
CC/C(=N\NC(=O)c1ccccc1Cl)c1ccc(Br)s1,12%,18%,-2%,0.1%,?,3%,-26%,-8%
COc1ccc(-n2cc(C(=O)N(C)c3cc(C)ccc3OC)c3ccccc3c2=O)cc1,nt,nt,nt,-7.6%,22%[46.1 µM],nt,-9%,-6%
O=C1Nc2ccc(F)cc2C12Nc1ccccc1-c1nnc(SCc3ccccc3Cl)nc1O2 (stereo not given),-32%,-36%,-17%,-3.3%,5%,?,-4%,?
Cc1nc(N2CCN(c3ccc(Cl)cc3)CC2)[nH]c(=O)c1C,-6%,?,-2%,nt,nt,nt,nt,4%
CC12CN3CC(C)(CN(C1)C3c1ccc(Cl)cc1Cl)C2O (stereo not given),3%,3%,15%,6.6%,?,14%,10%,21%
CCOC(=O)c1[nH]c(C)c(C(=O)N2CCCC(Nc3ccc(C)c(C)c3)C2)c1C (stereo not given),-11%,-1%,-5%,nt,nt,nt,nt,4%
COC(=O)c1ccccc1NC(=O)CSc1ccccc1,-64%,0%,-17%,-6.0%,8%,16%,4%,-2%
Cc1ccc(C(=O)NCc2ccccc2)c(F)c1F,-3%,0%,-21%,nt,nt,nt,nt,41%[activator]
CC(C)(C)n1nnnc1C(c1cccs1)N1CCN(c2ccccc2)CC1 (stereo not given),6%,0%,19%,-0.4%,?,10%,-7%,0%
O=c1[nH][nH]c(=O)c2c1[nH]c(=S)n2Cc1ccccc1,nt,nt,1%,nt,26%[46.1 µM],12%[46.1 µM],nt,-3%
Cc1cccc(-c2nc3c(s2)CCc2onc(-c4ccc(Br)cc4)c2-3)c1,-1%,-5%,-4%,nt,nt,nt,nt,9%
CCc1nc(SCc2nc3ccccc3[nH]2)c2oc3ccccc3c2n1,-119%,1%,-13%,-22%,-8%,?,10%,?
Cc1cccc(-c2c(NC(=O)c3ccco3)oc3ccc(Cl)cc3c2=O)c1,0%,-15%,7%,nt,-23%[46.1 µM],?,nt,-12%
COCCN(C(=O)c1ccco1)c1nc(-c2ccccc2)cs1,-30%,1%,34%,nt,-11%,?,nt,7%
Cc1cc(C)c(C(=O)CSc2n[nH]c(-c3ccncc3)n2)c(C)c1,-6%,-1%,-4%,nt,0%,?,nt,-17%
Nn1c(SCC(=O)Nc2cccc(F)c2)nnc1C1CCCCC1,-20%,-2%,2%,6.3%,15%,26%,-2%,-6%
Cc1cc(C)n(-c2nc(O)cc(=O)[nH]2)n1,10%,6%,0%,1.6%,10%,-11%[46.1 µM],-20%,-7%
CCOc1ccc(NC(=S)N2CCN(S(=O)(=O)c3ccc(OC)cc3)CC2)cc1,12%,-1%,5%,nt,-7%,-18%,nt,25%
CC(C)OC(=O)C(C)Nc1n[nH]c(=S)[nH]c1=O (stereo not given),1%,0%,2%,nt,12%,7%[46.1 µM],nt,13%

# Screens from PubChem BioAssay.
